HNF4A DNA FP: change in binding of human HNF4 alpha to DNA. P41235. HNF4a-FITC DNA binding, fluorescence polarization, 1 h. activity change, % at 10 µM. actives 0.3% (n = 360,000). AID 1224865; in the data active = activity change above about 30%, passing the limit was not always enough;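 also: controls were the assay level and a saturating level of protein; the project sought stronger binding though the title names inhibitors; some compounds called inactive have numbers as strong as hits; positive values seem to mean higher polarization but the record does not say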
UCH37 inh: blocks the human deubiquitinase UCH37 | Q9Y5K5 | purified proteasome/UCH37, Ub-AMC cleavage fluorescence | inhibition, % (concentration not given with the values) | actives 0.33% (n = 330,000) | AID 588478;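 active = mean of two replicates above 20%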;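 also: 0% = compound-free wells with enzyme and 100% = wells lacking proteasome; stock transfer was 100 nL into about 20 µL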
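Reagent: Ub-AMC substrate; assay system: Proteasome-associated human UCH37 deubiquitinase; controls: no-proteasome and no-compound wells; read-out: % inhibition of Ub-AMC cleavage fluorescence; timing: 30 min preincubation with enzyme, 25 min cleavage at room temperature; signal: AMC fluorescence from Ub-AMC cleavage, excitation 355 nm, emission 460 nm; buffer or medium: Tris-HCl pH 7.4 plus ovalbumin, ATP-MgCl2, DTT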
E coli growth: blocks Escherichia coli growth; OD600, 23 h; active compounds read low; OD600 absorbance (test concentration not listed); actives 0.21% (n = 330,000);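 active = OD600 absorbance below the run mean of sample wells minus 3.6 SD, in any replicate, cut at about 0.56 in these data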;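 also: stock transfer was 300 nL into about 60 µL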
A1 inh: inhibitors of the anti-apoptotic protein A1, read as caspase activation | MEF A1-2A-BIM cells, Caspase-Glo 3/7 luminescence, 3 h; percent of clofoctol response, vehicle zero | caspase activation, % (no concentration beside the values) | AID 2462 | actives 0.066% (n = 330,000);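 active = over half of replicate activation scores above 10%, or exactly half above 10 with the replicate mean above 10; inconclusive = replicate mean below 10 yet half the replicates above 10; inactive = over half of replicates below 10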;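 also: wells of about 30 µL received 50 nL stock; many hits fall short of the cut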
Vif TR-FRET: inhibitors of Vif binding to APOBEC3G peptide, primary screen, biochemical, TR-FRET, GST-Vif 1-94, biotin-A3G peptide, dose response retest (AID 1117319); TR-FRET GST-Vif / biotin-A3G peptide binding; higher % means a stronger effect; test concentration not given here; strong numbers were not always called active; one-dose inhibition, %; IC50 in µM for titrated hits; actives 0.57% (n = 260,000);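 active = above the screen mean plus three standard deviations and confirmed in dose response; inconclusive = results disagree or hit not tested in dose response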;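 also: Vif residues 1-94 fused to GST binding biotinylated APOBEC3G peptide 110-148; 0% = full assay without inhibitor and 100% = GST in place of GST-Vif; retest series ran down from 100 µM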
LANA-H2A inh: blocks KSHV LANA binding to histone H2A/H2B; Q9QR71; actives 0.6% (n = 320,000); inhibition, % (no concentration beside the values); cell-free LANA-H2A/H2B peptide, fluorescence polarization; in the data active = inhibition mostly above about 10%, no sharp cut-off; inactive = mostly below about 6.7%;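 also: stock transfer was 7.5 nL into about 10 µL; 0% = median of vehicle wells and 100% = median of positive control wells; one replicate is shown; the record names a cut of 25% in any replicate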
Target sequence (Q9QR71 whole entry, looked up): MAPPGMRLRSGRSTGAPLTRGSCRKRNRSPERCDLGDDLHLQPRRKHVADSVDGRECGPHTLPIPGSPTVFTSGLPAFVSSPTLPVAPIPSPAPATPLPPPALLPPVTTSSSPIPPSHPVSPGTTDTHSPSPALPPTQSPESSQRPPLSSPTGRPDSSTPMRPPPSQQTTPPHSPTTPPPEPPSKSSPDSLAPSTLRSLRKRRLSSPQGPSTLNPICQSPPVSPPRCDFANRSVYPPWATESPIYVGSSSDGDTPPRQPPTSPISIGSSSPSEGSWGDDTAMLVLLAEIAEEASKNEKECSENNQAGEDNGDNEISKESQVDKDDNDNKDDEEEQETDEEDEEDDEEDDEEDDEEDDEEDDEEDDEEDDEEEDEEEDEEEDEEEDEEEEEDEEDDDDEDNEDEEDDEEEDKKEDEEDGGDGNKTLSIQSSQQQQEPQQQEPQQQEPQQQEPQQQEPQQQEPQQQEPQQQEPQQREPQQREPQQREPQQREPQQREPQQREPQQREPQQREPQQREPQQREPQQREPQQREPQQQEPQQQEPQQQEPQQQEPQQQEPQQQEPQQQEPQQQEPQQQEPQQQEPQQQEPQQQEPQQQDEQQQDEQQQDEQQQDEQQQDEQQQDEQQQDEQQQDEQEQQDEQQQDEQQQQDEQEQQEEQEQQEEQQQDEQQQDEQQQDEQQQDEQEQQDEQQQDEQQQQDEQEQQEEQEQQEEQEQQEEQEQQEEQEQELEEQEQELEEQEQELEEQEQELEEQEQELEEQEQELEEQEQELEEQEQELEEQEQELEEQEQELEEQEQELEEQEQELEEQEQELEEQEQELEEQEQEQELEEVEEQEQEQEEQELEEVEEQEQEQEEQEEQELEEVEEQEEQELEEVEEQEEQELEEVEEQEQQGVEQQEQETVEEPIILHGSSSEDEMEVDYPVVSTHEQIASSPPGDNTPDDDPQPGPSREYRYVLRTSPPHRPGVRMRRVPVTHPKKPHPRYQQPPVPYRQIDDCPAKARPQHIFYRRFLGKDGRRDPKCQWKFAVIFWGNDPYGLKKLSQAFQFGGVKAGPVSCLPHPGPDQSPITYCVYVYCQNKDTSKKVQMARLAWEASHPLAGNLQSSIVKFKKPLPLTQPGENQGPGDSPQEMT
B2AR ag: human beta-2 adrenergic receptor agonism by FAP; P07550; Am2.2-beta2AR cells, FAP receptor internalization, flow cytometry; reference of the scale not given here; response, % (no concentration beside the values); actives 0.43% (n = 340,000);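 active = response above a set limit, near 3 SD of response in nonfluorescent compounds, cut at about 42% in these data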;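 also: stock transfer was 100 nL into about 11 µL; a reference agonist was the positive control; negative values mostly stem from fluorescent compounds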
* = called active by the depositor; u = inconclusive; x = no result given.

canonical_smiles	HNF4A DNA FP	UCH37 inh	E coli growth	A1 inh	Vif TR-FRET	LANA-H2A inh	B2AR ag
COc1ccccc1CN1CCC(CNS(=O)(=O)c2cc(-c3cc(C)no3)ccc2OC)CC1	1.2	-0.9	0.68	0.3	x	0.6	-5
COc1ccccc1Nc1c2c(nc3ccccc13)CCC2	2.2	7.4	0.66	-1.1	4%	3.3	6
S=C(NCc1ccco1)Nc1ccc(Oc2ccccc2)cc1	-2.4	1.0	0.62	-0.8	-9%	4.2	7
N#CC1=C(N)c2ccccc2CC12CCCCC2	-0.9	1.2	0.67	0.3	u	-3.2	1
CC1CCCN(c2ncnc3c2cnn3-c2ccc(Cl)cc2)C1 (stereo unspecified)	3.1	5.1	0.71	-6.5	x	0.9	-50
Cc1ccc(S(=O)(=O)c2c(COC(=O)c3ccc(Cl)cc3)c(-c3ccccc3)nn2C)cc1	-1.7	3.0	0.74	0.2	4%	-3.0	8
CC1=NCCN1S(=O)(=O)c1c(C(C)C)cc(C(C)C)cc1C(C)C	1.1	-0.9	0.61	-0.4	2%	-3.0	7
O=[N+]([O-])c1nn(-c2ccccc2)[n+]([O-])c1N1CCN(c2ccccc2F)CC1	0.0	2.7	0.71	0.4	3%	-1.4	-3
O=S(=O)(Nc1ccc(-c2ccccc2)cc1)c1ccccc1	0.3	0.7	0.68	x	-6%	x	1
O=C1CC(Cc2ccccc2)C(=O)N1c1ccc(Cl)cn1 (stereo unspecified)	1.4	2.9	0.74	-0.4	0%	-4.0	2
O=C(NC1CCCC1)C1CCC(=O)N1C1CCCC1 (stereo unspecified)	4.3	1.2	0.64	0.2	1%	-0.8	19
O=C(NCCCN1CCCCCC1)C1CCCN(S(=O)(=O)c2cccc3nsnc23)C1 (stereo unspecified)	1.8	1.0	0.67	0.7	x	8.0	-18
COC(=O)C1CCC(=O)N1C(c1ccc(OC)cc1)c1cc(OC)c(OC)c(OC)c1 (stereo unspecified)	-2.2	x	x	x	0%	x	11
COc1ccc(OC)c(NC(=O)c2ccc(NS(C)(=O)=O)cc2)c1	-4.9	3.2	0.65	-0.2	6%	-6.6	4
NC(=O)c1ccc(Cc2ncc(C(F)(F)F)cc2Cl)s1	1.6	1.1	0.72	1.3	6%	-4.0	-12
O=C(NCC(c1ccco1)N1CCOCC1)c1ccc(F)cc1 (stereo unspecified)	-5.1	1.6	0.64	0.4	-6%	2.4	-9
CSc1ccc(S(=O)(=O)N2c3ccccc3CC2C)cc1 (stereo unspecified)	2.7	2.0	0.68	0.2	x	-0.6	-6
COc1ccc(-n2ccc(=O)c(C(=O)O)n2)c(OC)c1	-2.9	-3.8	0.69	0.4	-1%	0.1	12
O=c1cc(O)n(-c2ccc(Cl)cc2)c(=S)[nH]1	4.3	4.1	0.78	0.5	-1%	-3.9	2
COC(=O)CNS(=O)(=O)c1ccc(OC)cc1	-1.2	0.8	0.72	0.2	-8%	-0.8	4
Cc1ccc(C)c(NC(=O)C2CCCN(S(=O)(=O)c3c(C)noc3/C=C/N(C)C)C2)c1 (stereo unspecified)	2.1	3.5	0.65	-0.7	1%	0.2	5
COc1ccc(CCNC(=O)C2CCCN(Cc3nc(-c4ccccc4C)oc3C)C2)cc1OC (stereo unspecified)	-2.2	2.8	0.72	0.1	u	-1.8	-1
Cc1cc(Cl)ccc1OCCCC(=O)NN	0.2	-1.6	0.73	-0.1	-11%	-2.8	4
CSc1ccccc1NC(=O)c1cnccn1	8.4	1.8	0.71	1.0	10%	-2.2	5
COc1cccc(N2CCN(C(=O)CCSCc3ccccc3F)CC2)c1	-0.2	1.5	0.7	0.6	3%	0.0	4
CC1(c2nnc(Cc3ccccc3)o2)CC(c2ccc(Br)cc2)=NO1 (stereo unspecified)	0.4	12	0.65	-0.3	x	-3.6	-2
CC(C)CCOP(=O)(c1ccc(N(C)C)cc1)C(O)c1ccc(N(C)C)cc1 (stereo unspecified)	-0.4	0.7	0.68	-0.1	4%	2.2	-4
CC1CN(C(=O)C(C)N2CCN(c3cccc(Cl)c3)CC2)CC(C)O1 (stereo unspecified)	-0.7	0.4	0.68	0.5	-9%	2.5	4
O=C(O)c1cc(S(=O)(=O)NCc2ccco2)c(Cl)cc1Cl	-1.8	0.9	0.72	u	2%	2.4	-5
O=C(Nc1ccccc1C(=O)N1CCOCC1)c1cccnc1	1.9	2.3	0.68	1.1	-3%	0.5	5
COc1cccc(CNS(=O)(=O)c2cc3c(cc2Cl)NC(=O)CO3)c1	0.3	6.2	0.79	-0.4	x	2.1	1
CCOC(=O)N1CCN(C(=O)c2oc3ccc(S(=O)(=O)N(CC)CC)cc3c2C)CC1	-0.4	5.2	0.68	0.4	3%	2.4	-5
Cn1cc(C(=O)c2ccc(Cl)cc2Cl)cc1C(=O)N/N=C(\N)COc1ccc(F)cc1	1.1	x	x	0.0	-7%	0.2	4
Cc1ccc(C2CC2c2n[nH]c(=S)n2-c2cccc(C)c2)cc1 (stereo unspecified)	-5.1	1.6	0.64	0.2	12%	-1.4	-6
COc1ccc(OCC(=O)NCCNC(=O)c2ccccn2)cc1	-2.3	4.0	0.69	-0.2	x	0.7	-1
CCCN(C(=O)c1cc(Cl)nc2ccccc12)c1c(N)n(Cc2ccccc2)c(=O)[nH]c1=O	3.7	5.4	0.69	2.1	5%	2.0	-1
Cc1ccc(C(=O)Nc2ccc(OCc3ccccc3)cc2)s1	-2.5	0.0	0.65	-0.6	x	2.3	15
Cc1ccc(NC(=O)C2=C(O)CCn3c2nc2ccccc23)cc1	1.2	4.1	0.73	-0.4	6%	-1.1	-15
O=C(Nc1ccc(Cl)c(Cl)c1)N1CCSCC1	-0.6	6.4	0.69	0.5	9%	3.7	0
CCC(=O)Nc1cc2[nH]c(=O)cc(C)c2cc1C	2.2	-58	0.68	0.6	3%	8.0	3

An excerpt from above, limited to UCH37 inh, LANA-H2A inh and HNF4A DNA FP:
canonical_smiles	UCH37 inh	LANA-H2A inh	HNF4A DNA FP
CCOC(=O)N1CCN(C(=O)c2oc3ccc(S(=O)(=O)N(CC)CC)cc3c2C)CC1	5.2	2.4	-0.4
Cn1cc(C(=O)c2ccc(Cl)cc2Cl)cc1C(=O)N/N=C(\N)COc1ccc(F)cc1	x	0.2	1.1
Cc1ccc(C2CC2c2n[nH]c(=S)n2-c2cccc(C)c2)cc1 (stereo unspecified)	1.6	-1.4	-5.1
COc1ccc(OCC(=O)NCCNC(=O)c2ccccn2)cc1	4.0	0.7	-2.3
CCCN(C(=O)c1cc(Cl)nc2ccccc12)c1c(N)n(Cc2ccccc2)c(=O)[nH]c1=O	5.4	2.0	3.7

Other compounds:
canonical_smiles	HNF4A DNA FP	UCH37 inh	E coli growth	A1 inh	Vif TR-FRET	LANA-H2A inh	B2AR ag
Cc1ccnc(SCc2cc(=O)c(OC(=O)c3cccs3)co2)n1	1.8	6.3	0.64	0.1	6%	-1.4	-2
O=C(/C=C/c1ccc(Cl)cc1)N(Cc1cccs1)C1CCS(=O)(=O)C1 (stereo unspecified)	0.5	1.1	0.64	0.8	1%	1.5	-8
CCC(C)(C)NC(=O)C(c1ccccc1)N(C(=O)c1csnn1)C1CC1 (stereo unspecified)	-4.5	-0.9	0.73	0.6	-3%	1.4	-2
Cc1ccc2cccc(SCC(=O)N3CCOCC3)c2n1	0.8	-67	0.76	-0.1	-3%	-1.2	-1
O=C(Cn1c(=O)oc2ccccc21)Nc1ccc(F)c(F)c1	2.6	6.8	0.63	0.7	-2%	-2.1	2
COc1ccc(CNC(=O)C2CCCN2)cc1OC (stereo unspecified)	1.5	1.5	0.72	1.0	x	2.6	-5
O=C1c2ccccc2C(=O)c2c(Nc3ccc(CCO)cc3)ccc(O)c21	-1.1	x	x	-0.9	14%	8.8	18
O=C(NNc1ccc(C2CCCCC2)cc1)C(O)(c1ccccc1)c1cccs1 (stereo unspecified)	-2.0	4.0	0.73	-0.4	5%	9.2	-4
S=C(Nc1ccccc1Oc1ccccc1)NC1CCCC1	0.1	-1.1	0.7	0.3	u	-0.3	-1
CCOCc1cc(CN2CCC(n3nccc3NC(=O)C3CC3)CC2)ccc1OC	-1.5	2.2	0.67	x	x	x	7

Individual results from above.
Value for CCOCc1cc(CN2CCC(n3nccc3NC(=O)C3CC3)CC2)ccc1OC under B2AR ag: 7
Value for Cc1ccnc(SCc2cc(=O)c(OC(=O)c3cccs3)co2)n1 under A1 inh: 0.1

Further compounds.
canonical_smiles	HNF4A DNA FP	UCH37 inh	E coli growth	A1 inh	Vif TR-FRET	LANA-H2A inh	B2AR ag
CC(C)CC(=O)N/N=C/c1c(N)n(C)c(=O)n(C)c1=O	-2.1	x	x	-0.5	20%	1.8	6
O=C(CCCCCN1C(=O)c2ccccc2C1=O)Nc1ccccc1	1.2	3.1	0.65	0.5	0%	1.3	-19
COc1cccc(N(CC(=O)NCc2ccccc2)C(=O)CCC(=O)Nc2nccs2)c1	1.2	-0.5	0.66	0.3	x	0.1	10
CN(C)CC(=O)Nc1ccc(S(N)(=O)=O)cc1	-0.2	4.3	0.71	1.2	-3%	1.7	4
Cn1cc(Cl)c(-c2n[nH]c(=S)n2-c2ccccc2)n1	0.4	6.7	0.67	0.8	-18%	1.2	6
O=C(Cc1ccc(Cl)cc1)Nc1nc2ccccc2[nH]1	3.9	3.7	0.68	-0.2	-9%	4.5	-10
COc1cccc(C(=O)CSc2nnc(-c3cccs3)o2)c1	1.9	1.3	0.71	-0.6	33%	7.0	-8
O=C(CNC(=O)c1ccco1)Nc1cccc(Cl)c1	6.2	2.1	0.67	1.3	-4%	2.2	-5
Cc1nnc(NC(=O)CSc2nc3ccccc3o2)s1	1.2	2.2	0.69	0.2	-2%	0.3	-11
CCn1c(CCC(N)=O)nnc1SCC(=O)c1cc(C)n(C2CC2)c1C	1.8	1.3	0.71	0.1	0%	4.8	0
CCCCn1c(=O)c(F)cn(Cc2ccc(OC)c([N+](=O)[O-])c2)c1=O	0.3	1.1	x	0.1	8%	-0.7	-5
Cc1nnsc1Sc1ccccc1C(=O)O	1.5	2.2	0.68	0.5	4%	-4.0	-2
O=C1NC(=O)/C(=C\c2ccc(O)cc2O)S1	-31	12	0.69	0.0	u	7.6	1
CC1CCCCC1NC(=O)Cn1[nH]c(=O)c2ccccc2c1=O (stereo unspecified)	-2.8	-1.7	0.72	0.8	0%	2.5	4
COc1ccc(Oc2nc(-c3cccnc3)nc3ccccc23)cc1	-4.1	-5.7	0.66	0.2	-19%	-0.1	-9
O=Cc1cnc(N2CCCCC2)s1	3.3	16	0.66	0.0	-7%	2.9	-17
COc1cc(-c2nnc(SCc3c(F)cccc3Cl)o2)cc(OC)c1OC	-2.3	-0.1	0.69	-0.5	1%	4.1	-5
Cc1ccc(N(CC(=O)NC2CCCC2)C(=O)CCCC(=O)Nc2ccccn2)cc1C	3.6	-2.6	0.7	-0.6	-1%	-0.7	-1
COC(=O)c1c(NC(=O)c2ccc(Br)s2)sc2c1CCC2	4.5	-13	0.68	0.0	-12%	-2.9	-8
Cc1cccc(C)c1NC(=O)c1cn(-c2ccccc2)nc1-c1ccccc1	-1.4	-1.7	0.69	1.5	-6%	-0.8	-20
CCCn1c(=N)n(CC(=O)c2cccs2)c2ccccc21	3.8	3.8	0.63	0.4	3%	1.2	7
CCCn1c(/C=N/Nc2nc3ccccc3[nH]2)nc2ccccc21	-1.4	x	x	x	13%	x	-2

Source: PubChem
